miR-21 reporter: miR-21 reporter, rising signal | HeLa miR-21 FLuc reporter, luciferase, 48 h | Potency, µM (titrated, usually from 38.3 µM), for inactives: at the highest dose reporter change, positive = more light | 340,000 tested, under 10 active | AID 2288; active = well fitted rising curve with a large enough effect; inconclusive = small, poorly fitted or top-dose-only effect; inactive = no such curve, though single readings can be large or run the other way;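 also: % of control where 0% means no effect; miR-21 action dims this reporter so a rising signal means less miR-21 action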
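HeLa cells endogenously expressing miR-21, stably carrying CMV-driven firefly luciferase with a downstream miR-21 binding site, 2000 cells/well. Titrations up to approximately 40 uM, 48 hours; luciferase luminescence read.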
Rango complex inh: prevents formation of the Rango-importin beta complex; Q14974; Rango CFP/YFP FRET sensor + importin beta, 45 min; Potency, µM (doses to about 92.2 µM), inactives show top-dose inhibition of complex formation; 340,000 compounds, 0.031% hits; AID 540263; active = rising FRET ratio curve, often small or poorly fitted; inconclusive = mostly compound fluorescence or quenching in the first reads; inactive = flat curves in all reads;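 also: potency is read from the fitted curve at half-maximal effect; 0% = DMSO wells and 100% = buffer wells lacking importin beta; nearly all actives have a fitted effect of over 15% in size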
Target sequence (Q14974 whole entry, looked up): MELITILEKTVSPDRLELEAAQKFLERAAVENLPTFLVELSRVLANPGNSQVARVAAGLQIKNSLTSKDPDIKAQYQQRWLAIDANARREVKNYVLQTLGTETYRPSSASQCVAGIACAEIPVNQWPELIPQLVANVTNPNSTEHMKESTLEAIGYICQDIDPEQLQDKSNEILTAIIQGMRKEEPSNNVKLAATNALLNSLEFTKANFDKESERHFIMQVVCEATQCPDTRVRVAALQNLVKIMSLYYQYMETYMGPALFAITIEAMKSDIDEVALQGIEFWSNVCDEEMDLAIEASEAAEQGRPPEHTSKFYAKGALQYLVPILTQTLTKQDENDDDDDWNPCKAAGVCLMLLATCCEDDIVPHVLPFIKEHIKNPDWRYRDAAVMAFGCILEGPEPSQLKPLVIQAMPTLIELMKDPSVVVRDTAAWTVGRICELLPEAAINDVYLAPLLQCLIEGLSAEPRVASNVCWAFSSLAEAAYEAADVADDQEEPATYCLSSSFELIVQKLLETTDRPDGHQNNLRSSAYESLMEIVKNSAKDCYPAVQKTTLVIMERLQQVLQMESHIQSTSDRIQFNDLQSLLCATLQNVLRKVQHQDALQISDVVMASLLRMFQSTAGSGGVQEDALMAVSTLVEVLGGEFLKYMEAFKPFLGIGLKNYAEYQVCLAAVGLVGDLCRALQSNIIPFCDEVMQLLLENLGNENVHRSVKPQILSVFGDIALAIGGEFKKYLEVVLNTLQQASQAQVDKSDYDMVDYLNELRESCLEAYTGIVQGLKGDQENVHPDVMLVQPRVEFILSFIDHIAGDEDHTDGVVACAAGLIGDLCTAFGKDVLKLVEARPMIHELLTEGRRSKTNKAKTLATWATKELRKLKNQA
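FRET biosensor Rango (snurportin 1 IBB between N-terminal EYFP and C-terminal Cerulean), 50 nM in PBS/1 mM DTT/0.02% Tween-20/0.1% BSA, preincubated 5 min RT with compound; 0.125 microM importin beta added, 45 min RT, CFP/YFP FRET ratio read.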
Rango dissoc inh: prevents RanGTP from dissociating the Rango-importin beta complex; Biochemical FRET Rango-importin beta, RanGTP-induced dissociation; Potency, µM (titrated, usually from 46.1 µM), inactives show at the highest dose activity change, negative = inhibition; 340,000 compounds, 0.071% hits; AID 540253; active means falling FRET ratio curve, often poorly fitted, with flat reads before Ran was added; inconclusive means other falling curves, or compound fluorescence or quenching; inactive means flat or rising ratio curve;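 also: potency is read from the fitted curve at half-maximal effect; % of control where 0% means no effect; nearly all actives have a fitted effect of over 45% in size; -100% = wells without RanGTP and RCC1; the record marks most hits as doubtful in a second field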
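Rango/importin beta premix (0.1/0.25 uM final), PBS + 1 mM DTT + 0.02% Tween-20 + 0.1% BSA; cpd 5 min RT; FRET pre-read; + RanGTP-RCC1 (0.6 uM Ran, 2 mM GTP, 0.2 uM RCC1); 45 min RT; FRET post-read, ex 430, em 486/530 nm.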
GLA inh pH 4.5: alpha-galactosidase A (human) inhibition, pH 4.5; purified enzyme, 4-MU-alpha-Gal fluorescence, pH 4.5; activity change, negative = inhibition, % at 105 µM; 230,000 tested, under 10 active; AID 1467; inconclusive = small, poorly fitted or top-dose-only inhibition, or a rising curve; inactive = flat fitted curve, though single readings scatter; no compound was filed as active;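 also: 0% = full activity with enzyme and -100% = basal without enzyme; dose as in the result columns while the protocol names 77 µM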
* = called active by the depositor; ? = inconclusive; . = not tested or not shown. A portion of the library. The share of hits here may be higher or lower than overall.

GLA inh pH 4.5 | miR-21 reporter | Rango dissoc inh | Rango complex inh | structure
. | . | 13% | -0.9% | O=C(CCc1ccccc1)Nc1ccc(S(=O)(=O)NC2=NCCCCC2)cc1
1 | 20% | . | . | Oc1ccccc1-c1cc(C(F)(F)F)[nH]n1
1 | 0% | -13% | 1.7% | CSc1nc(C)c(Cc2ccccc2)c(=O)[nH]1
4 | 1% | 3% | 1.8% | CSc1c(-c2ccccn2)c(N)nn1C(=O)C1CCC1
. | . | -6% | -3.5% | COc1ccccc1CCNC(=O)c1cccc(S(=O)(=O)N2CCc3ccccc3C2)c1
5 | -7% | 1% | 0.4% | C=CCNC(=O)C1CCC(C(=O)NCC=C)CC1 (centres undefined)
. | 1% | -1% | 5.0% | CC(C)(C)OC(=O)N[C@H](Cc1ccccc1)C(=O)N1CCC[C@@H]1C(=O)O
7 | 0% | 1% | -0.4% | CCOC(=O)c1c(C2CC2)csc1NC(C)=O
. | 1% | ? | ? | CN(C)CCNS(=O)(=O)c1ccc2c3c(cccc13)C(=O)N2
-12 | 3% | . | . | O=C(NC(=S)Nc1cc(S(=O)(=O)N2CCOCC2)ccc1N1CCOCC1)C1CCCC1
. | . | -11% | 0.4% | COc1ccc(C2CC(c3ccccc3)=NN2C(=O)CSc2nnnn2-c2cccc(C)c2)cc1 (centres undefined)
-11 | 5% | 2% | 0.6% | COc1cccc(C(C(=O)NC2CCCCC2)N(CCN2CCOCC2)C(=O)C2COc3ccccc3O2)c1 (centres undefined)
13 | -3% | 1% | 5.2% | COc1ccc(CCNC(=O)CC2SC(=NCc3ccccc3OC)NC2=O)cc1 (centres undefined)
2 | 0% | -8% | -0.8% | COc1ccc(N2CCN(C(=O)c3ccc(SC)cc3OC)CC2)cc1
. | -2% | 6% | 0.1% | COc1ccc(CNC(=O)C2CCCN(C(=O)Nc3ccc(OC)cc3)C2)cc1 (centres undefined)
. | 3% | 8% | 2.3% | COc1ccc(/C=C(\NC(=O)c2ccc(C)cc2)C(=O)NCCCn2ccnc2)cc1OC
-1 | -6% | -11% | -2.6% | COc1ccccc1NC(=O)CCSc1nc(C)cc(C)n1
. | -1% | 6% | -0.7% | Cc1cc(=O)oc2c(C)c(OCC(=O)c3ccccc3)ccc12
2 | 5% | 34% | -3.2% | COc1ccc(NC(=O)CN(c2cc(C)cc(C)c2)S(=O)(=O)c2c(C)noc2C)cc1
-3 | 2% | 47% | 0.4% | CC(C)CNC(=O)c1ccccc1NC(=O)c1ccccc1N(C)S(C)(=O)=O
. | . | -1% | 0.3% | CCC(=O)Nc1cccc(-c2nnc(-c3ccccc3)o2)c1
. | 0% | 13% | -0.9% | COc1ccc(/C=C/c2c(-c3ccc(OC)cc3)oc3ccc(-c4ccc(OC)cc4)cc23)cc1
. | -2% | 15% | -0.1% | COCCOC(=O)c1c(NC(=O)COC(=O)Cc2cccc(OC)c2)sc(C(N)=O)c1C
-9 | 3% | 19% | 1.2% | Cc1cccc(NC(=O)C2CCN(S(=O)(=O)c3c(C)nn(C)c3C)CC2)n1
-6 | -8% | 4% | -2.2% | CSc1cccc(NC(=O)CCCOc2ccc(Cl)cc2C)c1
-14 | -3% | -3% | ? | COc1ccccc1C(=O)NC(CCSC)C(=O)OC(C)C(N)=O (centres undefined)
3 | -3% | 27% | ? | CCc1cccc(C)c1NC(=O)CSc1nnc(-c2ccco2)n1N
2 | -8% | 1% | -2.0% | O=C(CSc1nccc(=O)[nH]1)Nc1ccc(F)c(Cl)c1
-2 | 18% | -8% | 0.1% | CCN1CCN(S(=O)(=O)c2cc(OCC(=O)NC3CCCCC3)c(C)cc2Cl)CC1
-7 | -4% | -4% | -0.7% | Cc1ccc(CSc2ccc3nnc(-c4cccnc4)n3n2)cc1
6 | 1% | 0% | 0.1% | O=C(O)c1ccc(S(=O)(=O)c2ccc3c(c2)C(=O)N(Cc2ccco2)C3=O)cc1
7 | -1% | -2% | 0.3% | O=C(CSc1nnnn1-c1ccc(Cl)cc1)N1CCc2ccccc2C1
2 | -1% | 15% | -1.0% | Cc1ccc(C(C2=C(O)CC(C)(C)CC2=O)C2C(=O)CC(C)(C)CC2=O)o1 (centres undefined)
9 | -5% | 17% | -1.9% | Cc1cc(NC(=O)CSc2n[nH]c(CC(C)C)n2)no1
7 | 0% | -7% | 3.7% | O=C1c2ccccc2C(O)N1Cc1ccco1 (centres undefined)
-16 | -4% | ? | ? | CC(=O)c1sc2nc(-c3cccs3)cc(C(F)(F)F)c2c1N
-6 | -6% | 12% | -2.8% | COc1ccc(N2C(=O)CSC23CCCCC3)cc1
2 | 0% | 1% | -1.7% | O=C(Nc1ccncc1)c1ccccc1-c1ccccc1
3 | -4% | -13% | -1.5% | O=P(OC1CCCCC1)(OC1CCCCC1)C(O)c1ccc(Cl)cc1Cl (centres undefined)
-13 | 0% | 0% | 0.5% | CS(=O)(=O)N(CC(=O)N1CCN(c2cccc(Cl)c2)CC1)c1cccc(F)c1
-6 | -6% | ? | ? | O=C(Nc1nc2c(s1)CN(Cc1ccccc1)CC2)c1cccc(S(=O)(=O)N2CCc3ccccc32)c1
-6 | -48% | 4% | 0.4% | COc1ccc(/C=C2\SC(=O)N(CCC(=O)Nc3ccc(S(=O)(=O)Nc4nccs4)cc3)C2=O)cc1
3 | -1% | 4% | -4.7% | Cc1ccc(NC(=O)CC2S/C(=N/c3nccs3)N(C)C2=O)c(C)c1 (centres undefined)
. | -1% | 10% | 4.1% | O=C1NCC(COc2ccc([N+](=O)[O-])cc2)O1 (centres undefined)
-4 | -8% | 8% | ? | COC(=O)c1ccccc1N(C)S(C)(=O)=O

One compound at a time, from the list above. Values in the order: GLA inh pH 4.5, miR-21 reporter, Rango dissoc inh, Rango complex inh
Cc1ccc(C(C2=C(O)CC(C)(C)CC2=O)C2C(=O)CC(C)(C)CC2=O)o1 (centres undefined) in the list: 2, -1%, 15%, -1.0%
O=C(Nc1ccncc1)c1ccccc1-c1ccccc1 in the list: 2, 0%, 1%, -1.7%
O=C1c2ccccc2C(O)N1Cc1ccco1 (centres undefined) in the list: 7, 0%, -7%, 3.7%
COc1ccc(N2C(=O)CSC23CCCCC3)cc1 in the list: -6, -6%, 12%, -2.8%
O=P(OC1CCCCC1)(OC1CCCCC1)C(O)c1ccc(Cl)cc1Cl (centres undefined) in the list: 3, -4%, -13%, -1.5%

Continuation:
GLA inh pH 4.5 | miR-21 reporter | Rango dissoc inh | Rango complex inh | structure
-6 | 1% | -9% | -3.0% | CCOC(=O)C1CCN(c2c(NCCCN3CCCCC3)c(=O)c2=O)CC1
-8 | -8% | -6% | -0.8% | C=C(C)CNC(=S)NNC(=O)c1ccc(Br)cc1
-2 | 5% | 33% | -3.3% | C=CCNC(=O)c1onc(CSc2cccc(OC)c2)c1C(=O)NCC=C
. | -1% | -2% | 0.9% | COc1ccccc1CC(=O)NCCc1c[nH]c2ccccc12
. | . | -21% | ? | CCOc1ccc(OCCC(=O)N(CC)CC(=O)NCc2cccs2)cc1
. | -32% | ? | ? | COc1ccc(C2Nc3ccccc3NC3=C2C(=O)CC(C)(C)C3)cc1 (centres undefined)
. | 13% | -1% | 0.2% | Cc1ccc(NC(=O)CCC(=O)N/N=C/c2ccccc2O)cc1
4 | -2% | ? | ? | Cc1csc(NC(=O)c2cc(=O)[nH]c3ccc(S(=O)(=O)N4CCOCC4)cc23)n1
-6 | 8% | 7% | 3.6% | O=C1/C(=C/c2cccnc2)SC(=S)N1c1ccc(O)cc1
-5 | -17% | 0% | 2.0% | O=C1CSC(c2ccccc2[N+](=O)[O-])N1CCc1ccccc1 (centres undefined)
. | -6% | -18% | 5.0% | Cc1ccc(NC(=O)CN(Cc2ccco2)Cc2ccccc2O)cc1C
. | -4% | -5% | 0.0% | C/C(=N/NC(=O)c1nnn(-c2nonc2N)c1COc1ccccc1)c1ccccc1
3 | -2% | 4% | -2.2% | Cc1ccc(C)c(NC(=S)N2CCCCCC2)c1
. | 4% | -5% | 0.4% | COc1ccc(N2CCN(c3ncnc4sc(C(=O)NCC5CCCO5)c(C)c34)CC2)cc1 (centres undefined)
-5 | -3% | 2% | -2.0% | O=C(Oc1ccccc1Cl)c1ccccc1P(=O)(O)O
. | . | 2% | -0.2% | COC(C/C=C/[C@@H](O)[C@@H](C)OCc1ccccc1)OC
-2 | -24% | 3% | -0.2% | CC(C)(C)n1ncc2c(=O)n(CC(=O)NCCc3ccccc3)cnc21
-18 | 3% | 0% | -3.2% | CC(C)C[C@H](NC(=O)c1[nH]cnc1C(=O)N[C@H](C)c1ccccc1)C(=O)OCc1ccccc1
. | . | 2% | -3.6% | COc1ccc(C#Cc2c(-c3ccc(OC)cc3)oc3ccc(-c4ccc(OC)cc4)cc23)cc1
4 | -4% | -3% | -1.4% | CCN(CC)CCCNC(=O)c1nn(-c2ccc(OC)cc2OC)c(=O)c2ccccc12
4 | 1% | 3% | 4.5% | COCCNC(=O)c1ccc2c(=O)n(CCCN3CCCC3=O)c(=S)[nH]c2c1
. | 4% | -1% | 1.9% | COc1ccc(-n2nc(C(=O)NCC(=O)NCCc3ccc(OC)c(OC)c3)c3ccccc3c2=O)cc1Cl
4 | -5% | 11% | -3.9% | O=c1c2ccccc2nnn1CCN1CCOCC1
2 | 6% | -17% | -2.9% | CC(C)(C)OC(=O)NCCCCCc1nnc(SCc2c(F)cccc2Cl)o1
0 | 0% | 16% | 0.1% | Cc1ccc2cc(C#N)c(SCC(=O)NCC3CCCO3)nc2c1 (centres undefined)
1 | -3% | -5% | -1.4% | Cc1cnc(C(=O)OCC(=O)Nc2cc(Cl)cc(Cl)c2)cn1
10 | -1% | 28% | -1.7% | Nc1[nH]ncc1-c1ccccc1
-1 | -3% | -11% | 5.4% | COc1ccccc1OCc1ccc(C(=O)NN)cc1
6 | ? | -6% | 4.2% | Cc1cc(C)c(C)c(S(=O)(=O)N2CCN(CC(=O)c3c(N)n(Cc4ccccc4)c(=O)n(C)c3=O)CC2)c1C
-17 | -3% | -11% | 5.2% | Cc1ccccc1OCC(=O)NC(=S)Nc1ccc(N2CCOCC2)c(Cl)c1
. | . | 0% | 1.0% | Cc1cccc(C)c1-c1ccc(CN2C(CC(C)C)C(=O)N(Cc3cn(CC4CCCCC4)nn3)CCS2(=O)=O)cc1 (centres undefined)
0 | -5% | 3% | -2.6% | O=C(COC(=O)CCSc1ccccc1Cl)Nc1ccc(F)cc1F
. | -2% | -16% | -0.7% | CCCCCCCNC(=O)C1(CC2CC(c3ccc(Cl)cc3)=NO2)CCN(C(=O)c2ccccc2)CC1 (centres undefined)
-7 | -5% | -16% | -1.2% | CCC1CCCCN1C(=O)Cn1c(=O)n(CCC(=O)NCc2ccco2)c(=O)c2sccc21 (centres undefined)
. | -3% | 4% | 2.8% | CC(C)(C)c1nc(SCC(=O)NNC(=O)c2ccccc2)c2ccccc2n1
6 | -5% | -9% | -0.5% | COc1cc(OC)c(C2C(C#N)=C(C)NC(C)=C2C#N)c(C(=O)O)c1
-3 | 3% | 24% | 5.6% | CC1=CC(=O)C(C(C)C)=C/C1=N/OC(=O)c1cccc([N+](=O)[O-])c1
-9 | 2% | 32% | -0.7% | COc1ccccc1C1C2=C(N=C3SCC(=O)N31)c1ccccc1CC2 (centres undefined)
3 | 15% | -1% | -2.7% | O=C1CC(c2ccsc2)c2cc3c(cc2N1)OCCO3 (centres undefined)
-1 | 2% | -13% | ? | CC1C(=O)CCCCCCCCCC2C1(N1CCOCC1)CS2(=O)=O (centres undefined)
. | -4% | -9% | 0.5% | N#Cc1ccc(/C=C2\CCCCn3c2nc2cc(C(=O)O)ccc2c3=O)cc1
1 | 0% | . | . | COc1cccc(OCCOCCNCCO)c1
. | 0% | -20% | 2.3% | CC(=O)Oc1ccc2c(=O)oc(-c3ccccc3C)nc2c1
. | 0% | 1% | -1.6% | O=C(O)c1cc(S(=O)(=O)N(Cc2ccccc2)c2ccc(Cl)cc2)ccc1Cl

Bioassay records: PubChem BioAssay, National Center for Advancing Translational Sciences (NCATS)
